Bioassay records as filed in PubChem BioAssay.
Ecoli rRNA inh = inhibits bacterial ribosomal RNA function over humanized ribosomes; E. coli WT GFP vs humanized-ribosome RFP mutants, fluorescence, 24 h; active compounds read low; DMSO median 0, no signal -100; GFP signal change (wild-type ribosome), % (no concentration beside the values); 350,000 compounds, 1.6% hits; AID 720706;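 active = significant combined selectivity score with lowered wild-type GFP, culture density cut under 30%, mutant RFP and density less affected; inactive = any of these conditions unmet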; note: one replicate is shown; some compounds called inactive have numbers as strong as hits
Vif A3G = HIV-1 Vif–A3G interaction blockers – biochemical, TR-FRET, GST-Vif 1-94, biotin-A3G peptide, dose response retest, primary screen (AID 1117319); TR-FRET GST-Vif / biotin-A3G peptide binding; higher % means a stronger effect; test concentration not given here; strong numbers were not always called active; inhibition, %; hits with a dose series show IC50 in µM; 260,000 compounds, 0.57% hits;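 active = above the screen mean plus three standard deviations and confirmed in dose response; inconclusive = results disagree or hit not tested in dose response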;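 note: Vif residues 1-94 fused to GST binding biotinylated APOBEC3G peptide 110-148; 0% = full assay without inhibitor and 100% = GST in place of GST-Vif; retest series ran down from 100 µM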
ALR inh = human ALR oxidase inhibition via reduced H2O2; purified ALR, DTT oxidation, H2O2 HRP-luminol luminescence; inhibition, % (no concentration beside the values); 290,000 compounds, 3.8% hits;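 active = mean and each replicate at 75% or more; inconclusive = only one of the two met; inactive = neither met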;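 note: stock transfer was 7.5 nL into about 7.5 µL; 0% = neutral wells and 100% = wells with inactivated enzyme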
Target sequence (P55789 whole entry, looked up): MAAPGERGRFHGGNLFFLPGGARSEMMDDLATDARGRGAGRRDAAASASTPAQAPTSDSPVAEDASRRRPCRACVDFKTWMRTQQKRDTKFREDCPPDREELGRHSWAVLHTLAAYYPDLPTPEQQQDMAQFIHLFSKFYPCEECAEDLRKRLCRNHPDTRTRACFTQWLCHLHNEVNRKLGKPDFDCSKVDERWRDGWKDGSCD
AF4-AF9 inh = MLL-AF4/AF9 protein interaction inhibition | P42568 | AlphaScreen, biotin-AF4 peptide binding to FLAG-AF9 | inhibition, % at 10 µM | 350,000 compounds, 0.47% hits | AID 651704;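 active = every replicate reaching a set inhibition limit, whatever the replicate mean, cut at about 25% in these data; inconclusive = mean inhibition reaches that limit but some replicates miss it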;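 note: 0% = plate neutral control median and 100% = total signal loss; the record names both 10 and 1 µM as test concentration; the first replicate is given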
FGF22 binding = FGF22 (human) thermal shift binding; Q9HCT0; recombinant FGF22 thermal shift, SYPRO orange fluorescence; percent of sucrose octasulfate shift, DMSO zero; calls only at 9.99 µM; 340,000 compounds, 1.5% hits;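 active = melting point raised past a set limit in the mean and every replicate; inconclusive = no clear call; three in four hits are not shown here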
Target sequence (Q9HCT0 whole entry, looked up): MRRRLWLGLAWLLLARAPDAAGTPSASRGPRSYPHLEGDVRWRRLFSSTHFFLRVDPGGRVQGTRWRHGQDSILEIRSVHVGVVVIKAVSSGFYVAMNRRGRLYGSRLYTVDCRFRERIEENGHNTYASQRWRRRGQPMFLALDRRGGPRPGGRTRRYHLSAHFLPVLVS
Ecoli growth = blocks Escherichia coli growth. 330,000 compounds, 0.21% hits. OD600 absorbance (test concentration not listed). OD600, 23 h; active compounds read low;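 active = OD600 absorbance below the run mean of sample wells minus 3.6 SD, in any replicate, cut at about 0.56 in these data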;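 note: stock transfer was 300 nL into about 60 µL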
HNF4A DNA FP = change in binding of human HNF4 alpha to DNA; P41235; HNF4a-FITC DNA binding, fluorescence polarization, 1 h; activity change, % at 10 µM; 360,000 compounds, 0.3% hits; AID 1224865; in the data active = activity change above about 30%, passing the limit was not always enough;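 note: controls were the assay level and a saturating level of protein; the project sought stronger binding though the title names inhibitors; some compounds called inactive have numbers as strong as hits; positive values seem to mean higher polarization but the record does not say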
Target sequence (P41235 whole entry, looked up): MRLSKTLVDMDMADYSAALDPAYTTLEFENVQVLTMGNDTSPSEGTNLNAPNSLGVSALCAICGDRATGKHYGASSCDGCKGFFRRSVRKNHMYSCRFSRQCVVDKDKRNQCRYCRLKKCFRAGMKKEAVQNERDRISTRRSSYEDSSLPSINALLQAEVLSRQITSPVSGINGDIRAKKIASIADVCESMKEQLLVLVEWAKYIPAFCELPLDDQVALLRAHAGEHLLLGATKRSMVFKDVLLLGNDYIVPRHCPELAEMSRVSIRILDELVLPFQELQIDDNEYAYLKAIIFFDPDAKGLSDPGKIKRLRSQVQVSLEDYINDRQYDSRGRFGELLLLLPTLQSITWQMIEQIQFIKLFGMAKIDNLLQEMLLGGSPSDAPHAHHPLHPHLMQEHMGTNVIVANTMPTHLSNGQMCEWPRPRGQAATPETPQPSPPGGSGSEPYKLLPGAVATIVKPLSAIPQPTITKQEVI
Ecoli rRNA inh OD600 = recorded beside Ecoli rRNA inh, whose call it bears; OD600 change, %; measured here: OD600 growth;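 optical density of the mix in the first replicate; 0 = DMSO median and -100 = no signal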
Ecoli rRNA inh RFP = recorded beside Ecoli rRNA inh, whose call it bears; RFP signal change, %; measured here: RFP humanized mutant strains;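 first replicate; 0 = DMSO median and -100 = no signal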
* = called active by the depositor; i = inactive; ? = inconclusive; / = no result given; & = joins results of further samples.

SMILES | Ecoli rRNA inh | Ecoli rRNA inh OD600 | Ecoli rRNA inh RFP | Vif A3G | ALR inh | AF4-AF9 inh | FGF22 binding | Ecoli growth | HNF4A DNA FP
CCCNC(=O)C[C@@H]1CC[C@H]2[C@H](COc3ccc(NC(=O)c4cccs4)cc3C(=O)N2C)O1 | -1 | -4 | -1.7 | / | / | 0.8 | i | / | /
CC1(c2ccccc2)CC(C)(C)N2C(=O)C(=O)c3cccc1c32 (stereo not drawn) | -12 | -17 | -0.1 | ? | 0 | 8.2 | i | / | -1.1
Fc1ccc(-[n+]2nc(Nc3ccccc3)sc2-c2ccc(OCc3ccccc3)cc2)cc1 | -11 | -16 | -10 | / | 4 | 4.7 | i | 0.7 | 2.5
CCc1cc(Cn2nc(-c3ccccc3)cc2C(=O)NCc2ccccc2OC)on1 | -2 | 4 | 3.6 | / | -1 | 1.9 | i | / | -4.5
COc1ccccc1CNC(=O)Cn1nnnc1CN(C)C(C)C | 15 | 8 | 2.4 | / | / | 0.6 | i | 0.65 | 1.5
COc1ccc(NC(=O)CN2CCN(Cc3ccccc3)CC2)cc1 | 17 | 11 | 0.7 | / | -10 | -0.5 | i | 0.69 | 2.6
COC(=O)[C@H](CCSC)NC(=O)NCc1ccccn1 | / | / | / | -1% | -11 | / | / | 0.68 | 0.1
C=CCN(c1nc(C)cc(OC)n1)S(=O)(=O)c1ccccc1 | -9 | -24 | -17 | -3% | -2 | -3.1 | i | 0.7 | 1.6
O=C(COC(=O)c1ccc(O)cc1)Nc1ccccc1-c1ccccc1 | / | / | / | -12% | -3 | / | / | 0.7 | -1.9
N#C[C@@H]1[C@H](c2ccccc2C2=CCCC2)[C@H](CO)N1C(=O)C1CC1 | 1 | 9 | -1.7 | / | / | -1.2 | i | / | /
CC(C)NC(=O)N[C@H]1CC[C@@H](CCn2cc(-c3ccccc3)nn2)O[C@H]1CO | -5 | 4 | -1.1 | / | / | -1.5 | i | / | /
COc1ccc(S(=O)(=O)NC2CC(C)(C)NC(C)(C)C2)cc1C(C)C | 10 | 8 | -1.6 | / | -4 | 3.6 | i | 0.68 | 2.5
Cc1ccc(CCn2c3c(c4ccccc42)CN(C)CC3)cn1 | / | / | / | ? | -8 | / | / | 0.69 | -1.1
CCOC(=O)c1c(-c2ccccc2)csc1NC(=O)CSc1nnc(C)s1 | / | / | / | / | 3 | / | / | 0.71 | 2.6
CCN(CC)CCNC(=O)c1ccc(NC(C)=O)cc1 | 9&5 | 10&6 | -0.4&-2.6 | 28% | 1 | -5.5&1.2 | i | 0.69&0.66 | 2.3&1.2
Cc1nc2nc(C)c(CCC(=O)Nc3ccc4c(c3)OCO4)c(C)n2n1 | / | / | / | 4% | / | / | / | 0.75 | 3.8
COc1cc2oc(=O)cc(CN3CCCCCCC3)c2cc1Cl | -7 | 10 | 6.3 | / | / | 4.3 | i | / | 4.4
CC(C)C[C@@H](CN1CCCC1CN1C(=S)NC[C@@H]1Cc1ccc(O)cc1)N1C[C@H](Cc2ccccc2)N(CCc2ccccc2)C1=S (stereo partly drawn) | 4 | 5 | 0.7 | -2% | / | -1.3 | i | / | 3.4
C[C@H](CO)N1C[C@H](C)[C@@H](CN(C)Cc2ccc(Cl)c(Cl)c2)Oc2ccc(NC(=O)C3CCCCC3)cc2CC1=O | 0 | -4 | 0.3 | / | / | 0.8 | i | / | /
CCc1c(O)nc(SCC(=O)Nc2ccc(Cl)cc2)n(-c2ccccc2)c1=O | -5 | -12 | -3.2 | -1% | / | -2.3 | i | / | 9.0

Some of the entries above in another layout.
O=C(COC(=O)c1ccc(O)cc1)Nc1ccccc1-c1ccccc1
  Ecoli rRNA inh: /; Ecoli rRNA inh OD600: /; Ecoli rRNA inh RFP: /; Vif A3G: -12%; ALR inh: -3; AF4-AF9 inh: /; FGF22 binding: /; Ecoli growth: 0.7; HNF4A DNA FP: -1.9
N#C[C@@H]1[C@H](c2ccccc2C2=CCCC2)[C@H](CO)N1C(=O)C1CC1
  Ecoli rRNA inh: 1; Ecoli rRNA inh OD600: 9; Ecoli rRNA inh RFP: -1.7; Vif A3G: /; ALR inh: /; AF4-AF9 inh: -1.2; FGF22 binding: i; Ecoli growth: /; HNF4A DNA FP: /

Next structures
SMILES | Ecoli rRNA inh | Ecoli rRNA inh OD600 | Ecoli rRNA inh RFP | Vif A3G | ALR inh | AF4-AF9 inh | FGF22 binding | Ecoli growth | HNF4A DNA FP
CC(Nc1cc(N2CCCC2)ccc1[N+](=O)[O-])c1ccccc1 (stereo not drawn) | / | / | / | 12% | -11 | / | / | 0.83 | -0.9
COc1ccccc1NCC(=O)NNC(C)C(=O)Nc1cccc(Cl)c1 (stereo not drawn) | -32* | -21* | -0.6* | / | / | 3.3 | i | 0.71 | 0.1
COc1cccc(COC(=O)C2CCN(S(=O)(=O)c3ccc(C)cc3C)CC2)c1OC | 0 | 2 | 3.2 | / | -1 | -11 | i | 0.69 | 0.4
CC(C)[C@H](Nc1nc(-c2ccccc2)nc2c1oc1ccccc12)C(=O)O | / | / | / | -4% | 2 | / | / | / | -2.2
CCOc1cc(/C=C2/C(=N)N3C(=NC2=O)SN=C3S(=O)(=O)C(C)C)ccc1OC(=O)c1ccco1 | 0 | 7 | 2.3 | 4% | 47 | -3.7 | / | 0.72 | 39*
CN(C)CCNC(=O)Cc1ccc([N+](=O)[O-])cc1 | 16 | 7 | -2.8 | / | -1 | -24 | i | 0.67 | 0.7
COc1ccc(-c2csc(NC(=O)c3ccccc3OC)c2C(=O)O)cc1OC | 2 | 6 | -0.8 | -8% | -2 | 0.0 | i | 0.65 | -1.9
C[C@H]1CN([C@@H](C)CO)S(=O)(=O)c2ccc(-c3cccc(F)c3)cc2O[C@@H]1CN(C)C(=O)C1CC1 | -11 | -15 | 0.6 | / | / | -1.9 | i | / | /
O=C(C[C@H]1C[C@H]2c3cc(NC(=O)CC4CC4)ccc3O[C@H]2[C@H](CO)O1)NCCc1ccccc1 | -2 | -16 | 2.0 | / | / | -0.2 | i | / | /
Nc1nc(SCC(=O)NCc2ccccc2)n[nH]1 | 6 | 8 | -4.9 | 5% | 0 | / | / | 0.78 | 0.8
COc1ccc(NS(=O)(=O)c2ccc(Cl)c(NC(=O)c3ccccc3F)c2)cc1 | -13* | -21* | 2.6* | -3% | 0 | -11 | i | 0.68 | -0.1
Cc1cccc(C)c1NC1=NCCCCC1 | 25 | 12 | 1.9 | 8% | -1 | -0.7 | i | 0.73 | -6.6
Cc1ccc(-c2cc(C(F)F)nc(NCc3cccnc3)n2)cc1 | / | / | / | 2% | -24 | / | / | 0.69 | 3.6
CC(=O)NN1C(=O)/C(=C\c2ccccc2)SC1=S | / | / | / | 2% | 11 | / | / | / | -2.8
CCc1ccc(C(=O)Nn2cnc3ccccc3c2=O)cc1 | 1 | 3 | 0.2 | / | -5 | 1.0 | i | 0.65 | -0.5
Cc1c(NC(=S)N/N=C/c2ccc(N(C)C)cc2)c(=O)n(-c2ccccc2)n1C | 0 | 3 | -5.9 | 4% | 99* | -7.5 | i | / | -2.7
CCC(=O)N1CCCCN2[C@H](C1)[C@@H](c1ccc(C#Cc3cccnc3)cc1)[C@@H]2CO | -2 | 3 | 1.4 | / | / | -5.1 | i | / | /
C[C@H](NC(=O)OC(C)(C)C)C(=O)N/N=C/c1ccc2nccnc2c1 | 16 | 3 | 2.4 | -2% | -5 | / | i | / | 5.0
O=C(O)c1ccc(CNc2ccccc2C(=O)O)cc1 | / | / | / | 28% | 1 | / | / | 0.7 | -3.6
CN(C(=O)CSc1nnc(C(F)(F)F)n1C)c1c(N)n(Cc2ccccc2)c(=O)[nH]c1=O | 7 | 20 | 3.2 | 3% | / | -1.3 | i | / | 0.1
O=C(Nc1ccc2oc(-c3ccccc3)nc2c1)c1cccs1 | / | / | / | -4% | -6 | / | / | 0.71 | 2.4
CCOc1ccc(N(CC(=O)Nc2ccccc2C(=O)N2CCOCC2)S(=O)(=O)c2ccc(F)cc2)cc1 | / | / | / | 9% | -14 | / | / | 0.71 | -3.5
CC1(C(=O)NS(=O)(=O)c2ccc(Br)cc2)CCN1C(=O)CCC1CCCC1 (stereo not drawn) | -3 | -1 | 1.3 | / | / | 1.1 | i | / | -4.7
O=C(CC(c1ccco1)S(=O)(=O)c1ccccc1)c1ccccc1 (stereo not drawn) | 8 | 8 | -0.7 | 8% | 0 | 1.7 | i | 0.61 | -2.8
CC(C)CN(C(=O)CSc1nncn1C)C1CCS(=O)(=O)C1 (stereo not drawn) | 12 | 6 | -2.5 | -8% | 0 | -1.0 | i | 0.63 | -3.3
O=C([C@H]1N[C@H]2c3ccc(-c4ccccc4F)c(=O)n3C[C@H]2[C@@H]1CO)N1CCCCC1 | 4 | 5 | -0.1 | / | / | -1.1 | i | / | /
CCOC(=O)c1c(C(=O)OCC)c(C)n(CCc2ccc(OC)c(OC)c2)c1C | / | / | / | -10% | / | / | / | 0.74 | 1.4
OC[C@@H]1CN(Cc2ccccc2)C[C@H](n2cnc3c(NCc4ccco4)ncnc32)O1 | 2 | 10 | 4.2 | / | / | -0.4 | i | / | 4.6
CC(Sc1nc2cc([N+](=O)[O-])ccc2n1-c1ccc(F)cc1)C(=O)NCc1ccc2c(c1)OCO2 (stereo not drawn) | / | / | / | -9% | 16 | / | / | 0.74 | 5.4
CCCC#Cc1cnc2c(c1)C(=O)N([C@H](C)CO)C[C@H](C)[C@@H](CN(C)C(=O)c1ccc(F)cc1)O2 | 2 | 6 | 1.0 | / | / | -0.9 | i | / | /
N#Cc1ccccc1NC(=O)COc1c(Br)cc(Br)c2cccnc12 | -1 | 2 | -0.2 | -7% | -25 | -9.3 | i | 0.73 | -0.2
CCOC(=O)C1(CC2CCCCO2)CCN(C(=O)Nc2ccc(C)c(C)c2)CC1 (stereo not drawn) | -29 | -25 | 2.1 | 13% | 1 | 3.9 | i | 0.65 | 2.3
COc1cc(N)c(Cl)cc1C(=O)OCC(=O)NC1CCCC1 | -2 | 1 | 0.0 | / | 3 | 1.4 | i | 0.67 | -2.6
CCCCN(C)C(=O)c1ccc(Nc2nc(C(N)Cc3ccc(C(F)(F)F)cc3)cs2)nc1 (stereo not drawn) | -27 | -32 | -8.0 | / | / | 7.0 | i | / | 2.9
Cc1nc(Cn2c3ccc(NC(=S)NC4CCCCC4)cc3c(=O)n2C)cs1 | 0 | 4 | 0.5 | / | / | -0.3 | i | / | 1.3
COC(=O)c1ccc(CC2(C)C(=O)Nc3ccc(OC(F)(F)F)cc32)o1 (stereo not drawn) | -9 | -32 | 0.0 | / | / | -1.8 | i | / | -3.7
COc1ccccc1CNC(=O)CCSCc1cccc(Cl)c1 | / | / | / | / | -14 | / | / | 0.67 | -0.2
CCC1=Nc2cc(C(=O)NCCCOC)ccc2Sc2ccccc21 | / | / | / | -6% | -1 | / | / | 0.68 | 0.5
CCCCCC(=O)NNC(=O)c1ccc(F)cc1 | / | / | / | 0% | -19 | / | / | 0.68 | -0.8
C[C@@H]1CN([C@H](C)CO)C(=O)c2cccc(NC(=O)c3ccncc3)c2O[C@H]1CN(C)C(=O)Nc1ccc2c(c1)OCO2 | 5 | 7 | 0.6 | / | / | -3.2 | i | / | /
Cn1c(=O)c2c(nc(N3CCNCC3)n2Cc2cccc3ccccc23)n(C)c1=O | / | / | / | -14% | -2 | / | / | 0.75 | -0.6
O=c1oc2ccccc2cc1-c1cn2ccccc2n1 | 13 | 22 | 5.0 | / | 1 | -2.7 | i | 0.69 | -1.0
Cc1ccc(OCC(=O)N/N=C/c2ccccc2)c([N+](=O)[O-])c1 | 8 | 17 | 2.4 | / | / | -15 | i | / | 1.5

Only part of the results is shown. The share of hits here may be higher or lower than overall.
